# CBX7 AlphaScr: CBX7 chromodomain binding inhibitors, primary screen, biochemical, AlphaScreen. AlphaScreen His6-CBX7 / biotin-H3K27me3 peptide binding; stronger effect = lower value. normalised signal (fraction of DMSO) (concentration not given with the values). actives 1.1% (n = 66,000). AID 1224903, 2016; in the data active means normalised signal below about 0.5;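 further: 100 nL library stock added to about 20 µL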
# Target sequence (O95931 whole entry, looked up): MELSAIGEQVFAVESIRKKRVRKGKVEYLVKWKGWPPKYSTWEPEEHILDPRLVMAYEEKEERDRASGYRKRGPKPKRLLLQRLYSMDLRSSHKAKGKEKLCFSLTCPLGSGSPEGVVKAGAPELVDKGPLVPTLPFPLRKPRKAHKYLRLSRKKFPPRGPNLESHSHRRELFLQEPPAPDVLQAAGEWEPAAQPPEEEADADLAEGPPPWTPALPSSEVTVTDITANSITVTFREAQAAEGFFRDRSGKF
# CBX7 AlphaScr z-score: further read-out of CBX7 AlphaScr, marked with its call; z-score; measured here: z-score of CBX7 signal; some inactives read as strong as hits; reference of the scale not given here;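 same signal on another scale; lower means less binding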
# * hit, by the source's call. Some of the compounds tested (hit frequency here may not be typical).
SMILES,CBX7 AlphaScr,CBX7 AlphaScr z-score
Cc1ccc(C(=O)c2sc3nc(C)c4c(c3c2N)CCCC4)cc1,1.3,10
CC1CCN(C(=O)Cn2cnc3c(nnn3Cc3ccc(F)cc3)c2=O)CC1,0.9,-1.6
CCCCNS(=O)(=O)c1ccc2nc(-c3cccnc3)cc(C(=O)NCc3ccc(C)cc3)c2c1,1,0.019
Nc1ccc2oc(-c3cccc4c(Br)cccc34)nc2c1,1.2,4.6
COc1cccc(CNC(=O)c2ccc(Cl)c(NC3=NC4CS(=O)(=O)CC4S3)c2)c1 (stereo not drawn),1.1,2.2
COc1ccccc1CNC(=O)C1CCC(CNS(=O)(=O)c2cccc3cccnc23)CC1 (stereo not drawn),1.1,2.4
CCOC(=O)c1c(NC(=O)c2ccccc2C)sc2c1CCC(CC)C2 (stereo not drawn),1.4,17
CCOC(=O)Cn1c(CN2CCOCC2)nc2c1c(=O)[nH]c(=O)n2C,1,-0.0078
COc1cc(OC)cc(-c2nc3nc(C)c(CCC(=O)Nc4ccc(Cl)cc4)c(C)n3n2)c1,0.99,-0.11
O=C(COc1ccccc1)Nc1ccc(Cl)c(-c2nc3ccccc3o2)c1,0.96,-0.86
COc1ccc(OC)c(Nc2cc(C(=O)NCCc3ccccc3)c3ccccc3n2)c1,0.97,-0.93
Cc1ccc(NS(=O)(=O)c2csc(C(=O)Nc3ccccc3)c2)cc1,0.9,-1.7
CCOc1ccc(C(=O)c2cn(Cc3cccc(F)c3)c3ccccc3c2=O)cc1,0.63,-1.3
CCOCCCNC(=O)c1cc(Nc2ccccc2)nc2ccccc12,1.1,0.84
COC(=O)c1sccc1NC(=O)c1cc2sccc2n1Cc1ccc(Cl)cc1,1.1,3.2
CCCCNC(=O)c1cc(-c2ccc(OC)cc2)nc2ccccc12,1.2,1.7
Cc1nc2c(C(=O)NC3CC3)cnn2c(C)c1Cc1ccccc1Cl,0.93,-1.8
Cc1ccc(NC(=O)C(c2ccccc2)N2CC(=O)Nc3ccccc32)cc1 (stereo not drawn),1.1,0.55
O=c1[nH]c2ccccc2n1CCCSc1nc2ccccc2[nH]1,0.99,-0.012
O=C(CCCC1=NS(=O)(=O)c2ccccc2N1)OCc1ccc(F)cc1,0.94,-0.61
O=C(Cc1ccccc1)Nc1ccc(-c2nc3ncccc3o2)cc1,0.82,-2.2
COc1ccc(NS(=O)(=O)c2ccc3c(c2)CCN3C(C)=O)c(OC)c1,0.94,-2
Cc1cccc2[nH]c(SCc3cc4c(cc3Cl)OCO4)nc12,1,1.2
Cc1c(C(=O)O)sc2ncn(Cc3cccc(F)c3)c(=O)c12,1.1,2.9
CC(CC(=O)NCCc1c[nH]c2ccccc12)CC1=NS(=O)(=O)c2ccccc2N1 (stereo not drawn),0.94,-1.3
COc1ccc(-c2nnc(NC(=O)c3ccc(C(C)(C)C)cc3)s2)cc1OC,1.4,0.86
Cc1cc(N2CCN(C)CC2)nc2ccc(NC(=O)c3cccc(C(F)(F)F)c3)cc12,1,0.11
CC(=O)NC(C)c1nc2ccccc2n1Cc1ccccc1F (stereo not drawn),1.1,1.3
COc1ccc(-c2noc(COc3cc(C)cc(C)c3C)n2)cc1,1.3,7
CC(C)CCNC(=O)C1CC(=O)N(C2CCCCC2)C1 (stereo not drawn),0.99,-0.023
O=C(c1cc2sccc2n1Cc1ccc(Cl)cc1)N1CCC(C(=O)N2CCCCC2)CC1,0.96,-1.7
CCOc1ccc(-n2ccnc2SCC(=O)Nc2ccc(C)cc2C)cc1,0.96,-0.29
COc1ccc(Nc2nc(-c3ccc(Cl)c(Cl)c3)cs2)cc1,0.78,-4.3
Cc1ccccc1NS(=O)(=O)c1ccc2[nH]cc(C(=O)NCCc3ccccc3)c(=O)c2c1,0.7,-5.6
COc1ccc(-n2nc3c(c2NC(=O)COc2ccc(Cl)cc2Cl)CSC3)cc1,1,0.83
COc1cccc(OCC(O)CN2CC(C)CC(C)C2)c1 (stereo not drawn),0.92,-0.59
CC(C)Cc1cc(C(=O)Nc2ccc(OC(F)(F)F)cc2)no1,1,1.4
O=C(Cn1ccc2ccccc2c1=O)NCCC(=O)Nc1ccc(F)cc1F,1,0.25
COc1ccc(-c2cc3ccccc3n2CC(O)CNc2ccc(C(C)C)cc2)cc1 (stereo not drawn),0.82,-1.7
Cc1cc(=O)n2nc(N3CCC(C(=O)NCCC4=CCCCC4)CC3)sc2n1,1.2,1.5
O=C(NCc1cccs1)C1C2C=CC3(CN(Cc4cccs4)C(=O)C13)O2 (stereo not drawn),1.2,2.6
Cc1csc(N2CCc3ccccc32)n1,0.98,-0.82
O=C(Nc1ccc(Br)cc1F)C1=CCN(S(=O)(=O)c2ccccc2)CC1,1,-0.029
COc1ccc(NC(=O)NCCN2CCN(c3cc(Cl)ccc3C)CC2)cc1,0.99,-0.097
Cc1cc(Nc2cccc(F)c2)nc(N2CCOCC2)n1,1,0.94
CC1CCN(CCCNC(=O)Cc2cn(C)c3ccccc23)CC1,1.1,1.8
CCCc1ccc(C(=O)Nc2cnc3ccccc3c2)cc1,1,0.61
COc1ccc(C(=O)NCc2nnc(SCC(=O)Nc3nnc(C)s3)o2)cc1,1.2,2
COc1ccccc1NC(=O)Nc1nnc(N2CCCCC2C)s1 (stereo not drawn),0.97,-0.11
CC(=O)N1CC(C)C(=O)Nc2ccccc21 (stereo not drawn),0.88,-2.2
Cc1ccc2c(c1)N(CCC(=O)NCC1COc3ccccc3O1)C(=O)CO2 (stereo not drawn),1.1,1.1
Cc1sc2ncn(CC(=O)NCC(=O)N(C)Cc3ccccc3)c(=O)c2c1C,1.1,2.1
Cc1ccc(CNC(=O)c2cc(=O)[nH]c3ccc(S(=O)(=O)N4CCCCC4)cc23)cc1,1,0.45
COc1ccc(Nc2cc(C(=O)NC3CCCC3)c3ccccc3n2)cc1,0.89,-1.3
COCCN1Cc2cccc(C(=O)NCc3ccc(C)cc3)c2C1=O,1,2
O=C(CCCN1C(=O)CSc2ncccc21)NCC1CCCO1 (stereo not drawn),0.99,-0.17
CC1(C)CC(=O)c2cnc(Nc3nc4ccccc4s3)nc2C1,1,-0.18
CC(=O)Nc1cccc(NC(=O)Cn2cnc3c(nnn3Cc3ccc(F)cc3)c2=O)c1,0.91,-1.5
CCOc1ccc(S(=O)(=O)c2cn(Cc3ccc(F)cc3)c3ccc(OCC)cc3c2=O)cc1,0.98,-0.9
O=C(Cc1c(C(=O)O)[nH]c2ccc(Cl)cc12)Nc1ccc2c(c1)OCCO2,0.95,-0.5

# (more compounds)
SMILES,CBX7 AlphaScr,CBX7 AlphaScr z-score
CCn1c(SCC(=O)Nc2cc(Cl)ccc2OC)nnc1-c1c[nH]c2ccccc12,1.2,1.2
Cc1cccc2sc(NC(=O)CCCN3C(=O)c4cccnc4C3=O)nc12,0.94,-0.96
COc1cccc(C(C)NC(=O)c2cc(C)on2)c1 (stereo not drawn),1,1
COc1ccccc1C(CC(=O)Nc1nccs1)c1ccc2c(c1)OCO2 (stereo not drawn),0.89,-0.77
COc1ccc(Nc2cc(C)nc3c2ccc2ccccc23)cc1OC,0.81,-2.1
COc1ccc(NC(=O)CC2SCCNC2=O)cc1 (stereo not drawn),1.1,3.5
CC(C)c1cc(C(=O)Nc2ccc3c(c2)OCO3)no1,0.75,-3
COC(=O)c1ccc(Nc2cc(C)nc3c(C)cc(C)cc23)cc1,1.1,2.2
Cc1cc(C)c(OCC(O)CN2CCCCC2C)c(C)c1 (stereo not drawn),1.1,1
CN(CC(=O)NCc1ccccc1)S(=O)(=O)c1ccc2c(c1)CCC(=O)N2,1,0.13
COc1cccc(C(=O)Nc2nc(-c3ccc(Cl)c(Cl)c3)cs2)c1,0.98,-0.39
O=C(NCc1cccnc1)C1CCN(S(=O)(=O)c2cccc3cccnc23)CC1,1.1,1.8
CN1CCc2nc(SCc3ccccc3Cl)c(C#N)c(-c3cccs3)c2C1,0.83,-0.2
COc1cccc(-c2nc(SCC(=O)Nc3ccc(OC)c(OC)c3)c(-c3ccccc3)[nH]2)c1,0.83,-8.2
COc1ccc(-c2nc(-c3ccc(OC)cc3)c(S(=O)(=O)CC(=O)Nc3ccc(F)cc3)[nH]2)cc1,0.98,-0.82
Cc1ccc(-c2nn(CC(N)=O)c(=O)c3ccccc23)cc1,1,0.24
O=C(Nc1ccc(Cc2ccncc2)cc1)c1cc(Br)ccc1Cl,0.96,-0.44
Cc1ccc(N2C(=O)c3ccc(C(=O)Nc4ccccc4)cc3C2=O)cc1,1.1,0.06
CCc1ccc(NC(=O)c2cc(-c3cccc(OC)c3)on2)cc1,0.88,-1.4
CC(=O)Nc1ccc(NC(=O)CN2C(=O)c3ccccc3S2(=O)=O)cc1,1,0.7
Cc1cc(C)cc(C(=O)Nc2c3c(nn2-c2cccc(Cl)c2)CSC3)c1,1.1,1.3
Cc1cc(N2CC(C)CC(C)C2)nc2ccc(NC(=O)CCC(=O)N3CCCC3)cc12 (stereo not drawn),1,0.95
O=C(c1ccc(C#Cc2ccccc2)o1)N1CCN(c2ccccn2)CC1,0.45*,-5.3*
COc1ccc(NC(=O)Cn2nc(Cc3ccncc3)c3ccccc3c2=O)cc1Cl,1,0.69
Cc1oc(-c2cccc(Cl)c2)nc1CS(=O)(=O)CC(=O)NCc1ccc(F)cc1,0.97,-1.7
O=C(COc1nsnc1N1CCOCC1)Nc1ccc(F)c(Cl)c1,1.1,2.1
CCC(=O)Nc1nc(-c2ccc3c(c2)OCO3)nc2c1c(=O)oc1ccccc12,0.97,-0.84
Cc1ccc(-c2cc(C(F)(F)F)n3nc(C(N)=O)cc3n2)cc1,1.1,1.6
COc1ccc(CCNc2oc(COc3ccccc3)nc2C#N)cc1OC,0.92,-3.6
O=C(NCc1ccc(F)cc1)C1CCCN(S(=O)(=O)c2cnc[nH]2)C1 (stereo not drawn),1,0.63
O=C(COc1nsnc1N1CCOCC1)Nc1ccc(Br)cc1,0.96,-0.73
CCOc1ccc2nc(N3CCCC(C(=O)Nc4ccc(OC)c(Cl)c4)C3)sc2c1 (stereo not drawn),0.96,-0.68
CC1(C)CC(=O)c2cc(-c3ccccc3)n(CC(=O)O)c2C1,1.2,1.6
Cc1ccc2oc(-c3cc(NC(=O)c4cc(Br)ccc4Cl)ccc3O)nc2c1,0.91,-1.3
O=C(CSCc1cnn(-c2ccccc2)c1-n1cccc1)Nc1ccccc1Cl,1.1,3.3
O=C(Cc1c(C(=O)O)[nH]c2ccc(Cl)cc12)Nc1ccc(C(F)(F)F)cc1,1,0.18
Cc1c(NC(=O)c2cccc(Br)c2)cccc1-c1nc2ccccc2o1,0.99,-0.24
O=C(O)c1ccc(S(=O)(=O)c2ccc3c(c2)C(=O)N(c2ccncc2)C3=O)cc1,0.98,-0.82
Cc1ccc(NC(=O)Cn2cc(S(=O)(=O)c3ccc(C)cc3)c(=O)c3cc4c(cc32)OCO4)cc1,0.95,-0.67
CCOc1ccc(CCNC(=O)CN2C(=O)COc3ccc(S(=O)(=O)N4CCOCC4)cc32)cc1,1,0.86

# Next part; the last seven above are carried over.
SMILES,CBX7 AlphaScr,CBX7 AlphaScr z-score
Cc1ccc2oc(-c3cc(NC(=O)c4cc(Br)ccc4Cl)ccc3O)nc2c1,0.91,-1.3
O=C(CSCc1cnn(-c2ccccc2)c1-n1cccc1)Nc1ccccc1Cl,1.1,3.3
O=C(Cc1c(C(=O)O)[nH]c2ccc(Cl)cc12)Nc1ccc(C(F)(F)F)cc1,1,0.18
Cc1c(NC(=O)c2cccc(Br)c2)cccc1-c1nc2ccccc2o1,0.99,-0.24
O=C(O)c1ccc(S(=O)(=O)c2ccc3c(c2)C(=O)N(c2ccncc2)C3=O)cc1,0.98,-0.82
Cc1ccc(NC(=O)Cn2cc(S(=O)(=O)c3ccc(C)cc3)c(=O)c3cc4c(cc32)OCO4)cc1,0.95,-0.67
CCOc1ccc(CCNC(=O)CN2C(=O)COc3ccc(S(=O)(=O)N4CCOCC4)cc32)cc1,1,0.86
COc1ccc(-c2nc3ccccc3o2)cc1NC(=O)COc1ccc(C)c(C)c1,1,0.029
CC1CCCCN1C(=O)c1cc(-c2ccc(Cl)cc2)on1 (stereo not drawn),0.98,-0.43
COc1ccc(CCNC2CC(=O)N(c3ccc(Br)cc3)C2=O)cc1 (stereo not drawn),1.1,0.8
NC(=O)CSc1nc2ccccc2n1CCOc1ccccc1,0.95,-0.37
CCOC(=O)N1CCN(c2c(N3CCCCC3)c(=O)c2=O)CC1,1,0.75
CCCOc1ccccc1C1CC(=O)Nc2cc(OC)c(OC)cc21 (stereo not drawn),0.97,-0.34
COc1ccc(OC)c2[nH]c(=O)c(CCNC(=O)c3ccccc3C(F)(F)F)cc12,1.1,3.6
CCOc1ccc(OCC)c(NC(=O)C2CCCN(S(=O)(=O)c3cnc[nH]3)C2)c1 (stereo not drawn),0.99,-0.59
CCOc1ccccc1NC(=O)Cn1cnc2scc(-c3ccccc3)c2c1=O,0.92,-2.2
CCOC(=O)c1c(NC(=O)c2ccc(Cl)cc2)sc2c1CCCC2,1.1,1.1
COc1ccc(-n2c(/C=C\c3ccc(F)cc3)nc3cc(OC)c(OC)cc3c2=O)cc1Cl,1.1,1.8
Cc1ccc(C(=O)N2CC(=O)Nc3ccc(F)cc3C2c2ccccc2)cc1C (stereo not drawn),0.78,-0.45
CN(Cc1ccccc1)C(=O)c1ccc2c(c1)NC(=O)c1ccccc1N2,0.9,-1.6

# As entered above:
# CBX7 AlphaScr with `CN(Cc1ccccc1)C(=O)c1ccc2c(c1)NC(=O)c1ccccc1N2` → 0.9
# CBX7 AlphaScr z-score with `COc1ccc(-c2nc3ccccc3o2)cc1NC(=O)COc1ccc(C)c(C)c1` → 0.029
# CBX7 AlphaScr z-score with `CCCOc1ccccc1C1CC(=O)Nc2cc(OC)c(OC)cc21` (stereo not drawn) → -0.34
# CBX7 AlphaScr with `COc1ccc(CCNC2CC(=O)N(c3ccc(Br)cc3)C2=O)cc1` (stereo not drawn) → 1.1
# CBX7 AlphaScr z-score with `Cc1ccc(C(=O)N2CC(=O)Nc3ccc(F)cc3C2c2ccccc2)cc1C` (stereo not drawn) → -0.45
# CBX7 AlphaScr with `NC(=O)CSc1nc2ccccc2n1CCOc1ccccc1` → 0.95

# Source: PubChem
